VDR inhibitor: vitamin D3 receptor (human) inhibition; hit rate 0.93% among 400,000; Potency, µM, without a hit: max response, negative = inhibition, usual class: inhibitors; AID 504847; VDR-SRC2-3 peptide fluorescence polarization, 2 h; P11473; active means well fitted inhibition curve with a large enough effect; inconclusive means small, poorly fitted or top-dose-only effect, or another doubt; inactive means no such curve, though single readings can be large or run the other way; further: series mostly up to about 120 µM
Target sequence (P11473 whole entry, looked up): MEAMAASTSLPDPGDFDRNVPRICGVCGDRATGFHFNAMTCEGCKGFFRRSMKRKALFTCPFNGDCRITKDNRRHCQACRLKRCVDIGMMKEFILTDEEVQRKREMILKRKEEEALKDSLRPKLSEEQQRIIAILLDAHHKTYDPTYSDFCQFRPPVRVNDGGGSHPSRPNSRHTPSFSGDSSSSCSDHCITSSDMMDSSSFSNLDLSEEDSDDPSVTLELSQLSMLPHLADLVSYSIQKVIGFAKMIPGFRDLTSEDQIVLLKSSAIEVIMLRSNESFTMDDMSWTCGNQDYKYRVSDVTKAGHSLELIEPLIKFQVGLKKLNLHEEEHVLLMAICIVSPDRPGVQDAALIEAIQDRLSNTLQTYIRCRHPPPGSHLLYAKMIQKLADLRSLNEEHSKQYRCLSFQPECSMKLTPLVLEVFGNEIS
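FP read-out; VDR + SRC2-3 coactivator peptide; 23 nl compound by pintool; 2 h RT incubation; reagents held at 4 deg C, protected from light.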
* hit, by the source's call; ? = inconclusive; & = joins results of further samples; [ ] = dose if it differs, or a comment. On the % scale 0 is the no-effect control and ±100 the full control effect; potency means the concentration at half of the fitted maximal effect. This is a subset; rates above refer to the full screens.

Start of the data: the first three records (preview)
SMILES | VDR inhibitor
CN1CCN(C(=O)C2CCCCC2C(=O)O)CC1 (configuration not stated) | -6%
CCC(C(=O)OC)n1cnc2c(nnn2-c2ccc(C)cc2)c1=O (configuration not stated) | -3%
CCOC(=O)C1(P(=O)(c2ccc(Cl)cc2)c2ccc(Cl)cc2)CCC1 | 8%

Results, repeating the preview:
SMILES | VDR inhibitor
CN1CCN(C(=O)C2CCCCC2C(=O)O)CC1 (configuration not stated) | -6%
CCC(C(=O)OC)n1cnc2c(nnn2-c2ccc(C)cc2)c1=O (configuration not stated) | -3%
CCOC(=O)C1(P(=O)(c2ccc(Cl)cc2)c2ccc(Cl)cc2)CCC1 | 8%
O=C1C2CC=C(Cl)CC2C(=O)N1c1ncn[nH]1 (configuration not stated) | -1%
Cc1ccc(CC(=O)NCC(c2ccco2)N(C)C)cc1C (configuration not stated) | 3%
CCOc1ccccc1C(=O)NCC(c1ccc(N(C)C)cc1)N1CCc2ccccc21 (configuration not stated) | 6%
CC(=O)O[C@H]1CC[C@@]2(C)[C@@H](CC[C@H]3[C@@H]4CC[C@H](C(C)O)[C@@]4(C)CC(=O)[C@@H]32)C1 (some centres not stated) | -11%
COc1cccc(NC(=O)CN(C)C(=O)CSCC(=O)Nc2ccc(C)cc2)c1 | 4%
O=C(c1cccc([N+](=O)[O-])c1)N1CCOCC1 | -17%
O=C(NCc1ccc2c(c1)OCO2)c1ccc2c(c1)N(Cc1ccccc1F)C(=O)c1ccccc1S2 | 11%
CN1C(=O)CC(N2CCN(Cc3ccc(Cl)cc3)CC2)C1=O (configuration not stated) | -4%
O=Cc1ccc(OCc2nnsc2Cl)cc1 | -21%
O=C(/C=C/c1ccccc1Cl)Nc1ccc2c(c1)C(=O)NC2=O | -2%
CC(C)Sc1nc2sc3c(c2c(=O)n1Cc1ccccc1)CCCC3 | -21%
COc1ccc(OC)c2c1sc(=NC(=O)C1CC1)n2C | -26%
CCOC(=O)c1cccc2c(=O)c(C(=O)c3ccc(Cl)cc3)c(C(=O)OC)[nH]c12 | 1%
O=C(O)c1oc2ccccc2c1CSc1ccc(Cl)cc1 | -17%
CCOC(=O)C(NCc1ccccc1OC)(NC(=O)CC)C(F)(F)F (configuration not stated) | -3%
CCC(/C=C1\Sc2ccc(OC)cc2N1CC)=C\c1sc2ccc(OC)cc2[n+]1CCCS(=O)(=O)[O-] | ?
Cc1ccc(CS(=O)(=O)CCC(=O)NCc2ccc(F)cc2)cc1 | -16%
COc1ccc(OCCC(=O)OCC(=O)NCCC2=CCCCC2)cc1 | -4%
CCOc1ccc(C(=O)NC2CC3CCCC(C2)N3Cc2ccccc2)cc1 (configuration not stated) | -23%
C[C@H](NC(=O)C1CC(=O)N(c2ccc3c(c2)OCCO3)C1)C(=O)NC1CCCC1 (some centres not stated) | 4%
Cc1cccc(C)c1NC(=O)C(c1ccccc1)N1CCC2(CC1)OCCO2 (configuration not stated) | -3%
NC1=NC2(CCCCCC2)n2c(nc3ccccc32)N1 | 11%
COc1cc(Cl)c(C)cc1NC(=O)c1ccc2c(c1)OCO2 | -18%
CCn1c(/N=C/c2ccc(OC)cc2O)nc2ccccc21 | 5%
COc1ccc(CCNc2ncnc3c2nnn3Cc2ccccc2)cc1 | 10%
CCOCCc1nn2c(=O)cc(CSCC(=O)Nc3ccccc3)nc2s1 | -9%
O=C(NC(=S)N1CCN(C/C=C/c2ccccc2)CC1)c1c(F)cccc1F | 1%
COc1ccccc1N1CCN(C(=O)COc2cccc3ccccc23)CC1 | 15%
Cn1c(=O)c2c(ncn2CC(=O)N2CCN(C(=O)c3ccco3)CC2)n(C)c1=O | -1%
C[C@H](CO)N1C[C@H](C)[C@@H](CN(C)S(=O)(=O)c2ccccc2)Oc2c(NS(=O)(=O)c3ccc(F)cc3)cccc2C1=O | -13%
O=C(Nc1cc(Cl)cc(Cl)c1)N1CCCN(Cc2ccccc2)CC1 | -2%
CCc1sc(C(=O)N(CCCOC)c2c(N)n(CC(C)C)c(=O)[nH]c2=O)cc1C | -25%
O=C1OC(Nc2ccc(Br)cn2)c2ccccc21 (configuration not stated) | -13%
CC1CCCCC12NC(=O)N(CC(=O)OCC(=O)NC(=O)c1ccccc1)C2=O (configuration not stated) | 8%
COc1ccc(CCNC(=O)COC(=O)c2ccc(Br)o2)cc1 | 1%
CC1(C)NC(=O)N(CC(O)CN(c2ccccc2)S(=O)(=O)c2ccccc2)C1=O (configuration not stated) | 19%
C[C@@]12C(=O)N(c3cccc(Br)c3)C(=O)N1[C@H](c1ccc(Cl)cc1)[C@@H]1C(=O)N(C3CCCCC3)C(=O)[C@@H]12 | -6%
Cc1ccccc1C(=O)Nc1cccc(C(=O)N/N=C/c2cc(Cl)cc([N+](=O)[O-])c2O)c1 | -2%
CCc1cc2ccccc2nc1SCC(=O)Nc1cc(C)on1 | 17%
CCOC(=O)Cc1csc(NS(=O)(=O)c2ccc(F)cc2)n1 | -17%
CC(NC(=O)CCn1c(=S)[nH]c2ccsc2c1=O)c1ccccc1 (configuration not stated) | -3%
Cc1cc(C(=O)CSc2nc(N)cc(N)n2)c(C)n1CC1CCCO1 (configuration not stated) | -7%

Some values from the list.
For VDR inhibitor, CCc1sc(C(=O)N(CCCOC)c2c(N)n(CC(C)C)c(=O)[nH]c2=O)cc1C has -25%
For VDR inhibitor, CC1CCCCC12NC(=O)N(CC(=O)OCC(=O)NC(=O)c1ccccc1)C2=O (configuration not stated) has 8%
For VDR inhibitor, C[C@H](CO)N1C[C@H](C)[C@@H](CN(C)S(=O)(=O)c2ccccc2)Oc2c(NS(=O)(=O)c3ccc(F)cc3)cccc2C1=O has -13%
For VDR inhibitor, CCOC(=O)Cc1csc(NS(=O)(=O)c2ccc(F)cc2)n1 has -17%

(more compounds)
SMILES | VDR inhibitor
CCN(CC)C(=O)c1nn(-c2ccccc2)c2c1C1CCC2(C)C1(C)C (configuration not stated) | -4%
COc1ccc(C(=O)NC2CCSc3ccccc32)cc1F (configuration not stated) | ?
CCn1c(=O)c2cc(C(=O)NCCc3cc(OC)ccc3OC)sc2c2ccccc21 | -5%
CC(C)(C)OC(=O)N1CCC(c2c(C(=O)NCCN3CCCC3)cnn2-c2ccc(Cl)cc2)CC1 | 5%
O=C1CCCc2nc(N3CCN(c4ccccc4)CC3)ncc21 | -4%
Cc1cc(C)c2sc(N(CCCN(C)C)C(=O)c3ccc(S(=O)(=O)N4CCCc5ccccc54)cc3)nc2c1 | -6%
C=CCN(CC=C)C(=O)C1CCC(C(=O)N(CC=C)CC=C)CC1 (configuration not stated) | 8%
Cc1cc(C)nc(/N=C(\N)N2CCCCC2)n1 | -1%
CCOC(=O)c1cccc(Nc2cc(-c3ccccc3)ncn2)c1 | 5%
Cc1ccccc1NC(=O)c1ccc(N/N=C/c2ccccc2O)c([N+](=O)[O-])c1 | -29%
Cc1cc(C)c(C#N)c(Oc2ccccc2)n1 | 14%
CCN1C2=NCCCN2c2cc(C)c(C)cc21 | -17%
Cc1nc(SCC(=O)NCC2CCCO2)c2c3c(sc2n1)CCC3 (configuration not stated) | 12%
CC(C)CN=CC1=C(O)c2ccccc2C1=O | 1%
CCCNC(=O)c1cc2nc(-c3ccccc3)cc(C(F)(F)F)n2n1 | 16%
CC(SCC(=O)NC(C)C1CC2CCC1C2)C(=O)O (configuration not stated) | -6%
CCN1CCCC1CNC(=O)C(NC(=O)C1CCC(C)CC1)C(C)C (configuration not stated) | -12%
Cc1cccc(-c2nnc(SC(C)C(=O)N3CCOCC3)o2)c1 (configuration not stated) | 5%
Cc1ccc(C(C)C)c(OCc2nnc3n2CCCCC3)c1 | 17%
COc1ccc(C(=O)NC(C)c2ccc(-n3ccnc3)cc2)c(OC)c1OC (configuration not stated) | 6%
CCCCCCCCc1nnc(NC(=O)c2ccco2)s1 | 8%
CC1(N(O)C=C2C=CC(=O)C=C2)CCCCC1=O (configuration not stated) | -6%
C/C(=N/NC(=O)c1ccccc1)c1ccc(NC(=O)C(F)(F)F)cc1 | -9%
Cc1cccc(NC(=O)CSCC(=O)N2CCN(Cc3ccc4c(c3)OCO4)CC2)c1 | 2%
COc1cc(NC(=O)c2ccccc2F)ccc1NC(=O)c1cc2ccccc2o1 | 32%[activator]
Cc1ccc2c(c1)C(=O)N1[C@H]3c4cc(Br)ccc4OC[C@@H]3[C@H](c3ccccc3)[C@]1(C)C(=O)N2 | -16%
CCCn1c(=O)[nH]c(=O)c2c1nc(-c1ccc(C#N)cc1)n2CCOC | -4%
Cc1ccc(NC(=O)CSc2n[nH]c(-c3ccncc3)n2)cc1 | 0%
CCCN(C(=O)c1cccc(S(=O)(=O)N2CCCc3ccccc32)c1)C1CCS(=O)(=O)C1 (configuration not stated) | -4%
O=C(Nc1cc(-c2nc3cc(Cl)ccc3o2)ccc1Cl)c1cccs1 | 10%

Some of these compounds in order of number of heavy atoms, high to low.
SMILES | VDR inhibitor
CCCN(C(=O)c1cccc(S(=O)(=O)N2CCCc3ccccc32)c1)C1CCS(=O)(=O)C1 (configuration not stated) | -4%
Cc1cccc(NC(=O)CSCC(=O)N2CCN(Cc3ccc4c(c3)OCO4)CC2)c1 | 2%
CCCn1c(=O)[nH]c(=O)c2c1nc(-c1ccc(C#N)cc1)n2CCOC | -4%
CCCCCCCCc1nnc(NC(=O)c2ccco2)s1 | 8%
CC1(N(O)C=C2C=CC(=O)C=C2)CCCCC1=O (configuration not stated) | -6%

Additional structures follow.
SMILES | VDR inhibitor
Cc1ccnc(NC(=O)C2(c3cccs3)CCOCC2)c1 | 2%
COc1ccc2c(=O)c3c(=O)n(-c4ccccc4)c(-c4ccc(C)cc4)nc3oc2c1 | -3%
CN(Cc1ccco1)C(=O)c1ccc2c(c1)N(Cc1ccccc1F)C(=O)c1ccccc1S2 | 1%
O=C(/C=C/c1ccccc1)Nc1scc(-c2ccccc2)c1C(=O)O | -5%
COCCCNC(=O)CCn1c(=O)c2ccccc2n(CC(=O)Nc2c(C)cccc2C)c1=O | 7%
O=C(O)c1ccc(C=NN=C2c3ccccc3-c3ccccc32)cc1 | ?
CC1CCC/C(=N/NC(=O)c2ccccc2-n2cccc2)C1 (configuration not stated) | 6%
Cc1ccc(-c2cc(-c3ccccc3)c3c(N)c(S(C)(=O)=O)sc3n2)cc1 | -7%
CCCCn1c2ccc(F)cc2c2nnc(NN)nc21 | ?
CC(C(=O)NCc1ccccc1)n1cc([N+](=O)[O-])cn1 (configuration not stated) | 8%
CC1(C)C2CC[C@]3(C)C(CC=C4[C@@H]5C[C@@](C)(CO)[C@@H](O)C[C@]56C[C@@H](OC6=O)[C@]43C)[C@@]2(C)CC[C@@H]1O (some centres not stated) | -13%
CC(C)NC(=O)c1cc2n(n1)C(C(F)(F)F)CC(c1ccco1)N2 (configuration not stated) | -14%
CC1CC(C)CN(S(=O)(=O)c2ccc(C(=O)NCc3ccc4c(c3)OCO4)cc2)C1 (configuration not stated) | -10%
CCn1c(SCC(=O)Nc2ccc(C(C)=O)cc2)nc2c([nH]c3ccccc32)c1=O | 2%
O=C(/C=C/c1ccc(S(=O)(=O)NCc2ccco2)cc1)NCc1ccccc1Cl | -11%
Cn1ncc(Cl)c1C(=O)Nc1cccc(Cl)c1 | ?
O=C(NCCN1CCN(c2ccccc2)CC1)Nc1ccccc1Cl | -3%
O=C(c1ccccc1F)N1CCC(N2CCCCCC2)CC1 | 9%
Cc1nc2ccccc2cc1C(=O)N/N=C/c1cccc([N+](=O)[O-])c1 | -7%
CC(=O)N1CCN(c2ccc(NC(=S)NC(=O)c3ccccc3)cc2)CC1 | -23%
Cc1ccc(-n2nc(C)c3c(C(F)(F)F)cc(-c4cccnc4)nc32)cc1Cl | -8%
COc1ccc(S(=O)(=O)N(CC(=O)NCC2CCCO2)c2ccc(Cl)cc2)cc1 (configuration not stated) | 3%
COc1ccc(C(=O)Nc2ccc3[nH]ncc3c2)cc1 | -13%
C=CCNC(=S)Nc1nc2c(cc1C(=O)OCC)CCCC2 | -9%
Cc1cccc(NS(=O)(=O)c2ccc(C)c(C(=O)NC3CCN(Cc4ccccc4)CC3)c2)c1 | 9%
O=C(NCCc1ccccn1)c1cccc(S(=O)(=O)N2CCCCCC2)c1 | 4%
O=C(O)c1cc(S(=O)(=O)Nc2ccc(OCc3ccccc3)cc2)ccc1Br | -13%
N#CC1(NC(=O)COC(=O)c2ncc(Cl)c(Cl)c2Cl)CCCCC1 | -18%
Cn1c(N2CCOCC2)c(/C=N/O)c2ccccc21 | -1%
COc1ccc(/C=C/C(=O)c2c(OC)cc(O)cc2OC)cc1 | ?
COc1ccc(N=C2S/C(=C\c3ccc(C)o3)C(=O)N2CC(C)C)cc1 | 9%
O=S(=O)(NCC(c1ccco1)N1CCOCC1)c1ccc(F)cc1 (configuration not stated) | ?
C=CCOC(=O)C1=C(C)NC(=O)NC1c1ccc(O)cc1 (configuration not stated) | 5%
Cc1cccc(C)c1NC(=O)NC1(C(=O)N2CCCCC2)CCCCC1 | -14%
COc1ccc(CCNCC(C)c2ccccc2)cc1 (configuration not stated) | -7%
COCC(=O)N1CCC2(CCCN(C(c3ccccc3)c3ccccc3)C2)CC1 | -22%
CN(CC(=O)Nc1ccc(F)cc1Cl)Cc1cccs1 | -2%
O=C(Nc1nnc(-c2ccc(Cl)cc2)o1)c1ccc(N2C(=O)CCC2=O)cc1 | -2%
NS(=O)(=O)c1ccc(NC(=O)c2cc(-c3cccs3)nc3ccccc23)cc1 | -12%&-6%
Cc1ccc(-n2c(-c3ccc(Cl)cc3Cl)n[nH]c2=S)cc1 | -10%
Cc1nn(CCCC(=O)Nc2ccccc2C(F)(F)F)c(=O)c2c1sc1ccccc12 | 12%
Cc1nc2c3cc(Cl)ccc3n(CCN3CCCCC3)c2s1 | -2%
COc1ccc(CN(C(=O)c2ccccc2Br)C2CCS(=O)(=O)C2)cc1 (configuration not stated) | 7%
Cc1ccc(OC(=O)c2cccc(S(=O)(=O)N3CCN(C)CC3)c2)c(Br)c1 | 0%
COc1ccc(C(=O)NCC(=O)OCC(=O)N2CCN(S(=O)(=O)c3ccccc3)CC2)cc1 | -19%
CCOc1ccc2c(c1)c(=O)c(C(=O)c1ccc(CC)cc1)cn2CC(=O)Nc1cccc(Cl)c1 | -6%
O=c1c2c3c(sc2n(CCN2CCOCC2)c(=O)n1Cc1ccco1)CCCCC3 | 28%

Screens: PubChem BioAssay, National Center for Advancing Translational Sciences (NCATS)
